Screening results from PubChem BioAssay.
LANA-nucl inh = inhibitors of KSHV LANA binding to nucleosomes; z-score (no concentration beside the values); AID 720717; 0.3% of 51,000 active; FITC-LANA1-23 / chicken nucleosome fluorescence polarization; active compounds read low;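 active means both repeat wells score below -2 in polarization z-score versus plate sample wells, excluding overly bright wells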;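 further: 100 nL library stock added to about 30 µL; numbers are from one replicate; some results filed as inactive read as strong as hits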
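Material: Purified chicken nucleosomes with FITC-labelled LANA N-terminal peptide (1-23) | Reagent: 50 nM FITC-LANA1-23 probe | Medium: TEN-BT buffer, pH 7.5 | Times: 10–45 min incubation at room temperature | Detection: Fluorescence polarization | Replication: Duplicates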
Ab BasE inh = blocks the Acinetobacter baumannii siderophore enzyme BasE; purified BasE, fluorescence polarization binding displacement; inhibition, % (no concentration beside the values); 0.1% of 84,000 active; AID 485350;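 active means both replicates above 25% with normal brightness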;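 further: 0% = negative plate control signal and 100% = positive plate control signal; stock transfer was 100 nL into about 30 µL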
An asterisk follows results filed as active; . = not tested or not shown; & = joins results of further samples. A portion of the library (hit frequency here may not be typical).

Start of the listing, in advance:
SMILES	LANA-nucl inh	Ab BasE inh
Cc1csc(N(C(=O)CCc2nc3ccccc3o2)c2ccccc2)n1	.	-1.0
Cc1cc(OCC(=O)NC2CCCCCC2)no1	.	-4.0
COc1ccc(C(=O)CC(=O)c2ccccc2O)cc1	0.268	-1.9

The whole of this part, from the first entry:
SMILES	LANA-nucl inh	Ab BasE inh
Cc1csc(N(C(=O)CCc2nc3ccccc3o2)c2ccccc2)n1	.	-1.0
Cc1cc(OCC(=O)NC2CCCCCC2)no1	.	-4.0
COc1ccc(C(=O)CC(=O)c2ccccc2O)cc1	0.268	-1.9
Cc1[nH]c(=O)[nH]c(=O)c1/C=N\NC(=O)c1cc2ccccc2o1	0.165	1.2
C=CCn1c(Cc2ccc(OC)c(Cl)c2)n[nH]c1=S	-0.376	0.8
O=C(NC1CCCCC1)c1cc(-c2ccc(Cl)cc2)n[nH]1	-1.28	0.2
Cc1cc(-c2noc(COc3c(F)c(F)cc(F)c3F)n2)c2ccccc2n1	0.21	-1.9
Cc1oc2c(F)c(F)c(F)c(F)c2c1C(=O)NC1CCCCCC1	.	1.4
CCN1C(=O)S/C(=C\C(=O)O)C1=O	-0.371	1.9
C/C(=N\NC1=NCCCN1)c1ccccc1	0.27	-0.1
CCCn1c(=O)c2ccccc2n2c(=S)[nH]nc12	.	-0.9
COc1ccc(Cl)cc1NC(=O)C(C)Oc1ccc(NC(=O)c2ccco2)cc1 (configuration not stated)	.	-0.7
O=C1c2ccccc2C(=O)N1CCCN1CCN(c2nccc(C(F)(F)F)n2)CC1	.	1.1
COc1cccc2cc(C(=O)NCCN(C)C)c(=O)oc12	-0.253	5.7
CC1CC(C)CN(C(=O)C2=COCCO2)C1 (configuration not stated)	.	2.1
CN=C1S/C(=C\c2cn(CC(=O)O)c3ccccc23)C(=O)N1C	.	4.1
Clc1cccc(-n2c(SCC3CC3)nnc2C2CC2)c1	.	0.3
Cc1ccc2c(c1)-c1c(cnn1CC(=O)N1CCc3ccccc31)CO2	0.41	0.5
O=C(NC(=O)C1CCCCC1)Nc1ccc(Cl)cc1	.	2.3
Cc1cc(Cl)ccc1OC(C)C(=O)N1CCN(c2ccccc2F)CC1 (configuration not stated)	.	1.5
N#CC1=C(n2ncnc2-c2ccc3c(c2)OCO3)SC2CCCCCC12 (configuration not stated)	0.6	-1.6
COc1ccc(C(=O)NCCS(=O)(=O)N2CCc3ccccc3C2)cc1OC	-0.178	0.0
Cc1ccc(N2C(=O)c3ccccc3C2C(=O)c2ccc(O)cc2O)cc1 (configuration not stated)	.	-0.8
NC(=S)N1CCOCC1	.	-1.6
CC(C)NC(=O)CN1CCN(c2ccc(F)cc2)CC1	-0.665	0.8

Additional results:
SMILES	LANA-nucl inh	Ab BasE inh
c1nc(N2CCN(Cc3ccc4c(c3)OCO4)CC2)c2ccsc2n1	.	-1.6
CC(NC(=O)CN1CCN(Cc2ccc(Cl)cc2)C1=O)c1ccc2c(c1)OCCO2 (configuration not stated)	-0.594	0.0
CCOC(=O)NN=C1CC(C)(C)NC(C)(C)C1	-1.18	1.4
Cc1ccc(OCCNC(=O)c2sc(C)nc2C)cc1	0.385	-1.8
O=C(O)C1CCC(CNS(=O)(=O)c2ccc(Br)cc2)CC1 (configuration not stated)	-0.145	0.6
COc1ccccc1NC(=O)N1CCCSc2ccccc21	.	2.8
c1cnc2nc(CN3CCCC3)cn2c1	.	2.9
O=C(/C=N/O)Nc1cccnc1	-1.1	2.2
Cc1ccc(C)n1C(CC(=O)O)c1ccc(F)cc1 (configuration not stated)	-1.21	.
CCCCn1c(=O)[nH][nH]c1=S	.	-0.5
O=C(Nc1ccccc1OC(F)F)C1=NN(c2nc3ccccc3[nH]2)C(=O)CC1	.	6.1
COc1ccc(-c2nc(C#N)c(N3CC(C)CC(C)C3)o2)cc1 (configuration not stated)	0.422	3.8
CCNC(=S)N1CCN(CC)CC1	-0.503	-1.1
O=C(Cn1c(-c2cccs2)cc2ccccc21)N1CCN(c2ccccc2)CC1	-0.11	-2.4
CCOc1ccc(-n2cc(C(=O)NC(C)c3cccs3)nn2)cc1 (configuration not stated)	1.39	-1.5
CC(=O)Nc1nc(N(C)C)nc(N(C)C)n1	-0.581	1.1
CC(Nc1nc2ccccc2s1)C(=O)O (configuration not stated)	.	2.2
CCn1c(CSc2ncccn2)nnc1SCC(=O)N1CCc2ccccc21	-0.444	-0.9
Clc1nnc(N/N=C/c2ccccc2)c2ccccc12	0.376	3.0
CC(C)Sc1n[nH]c(=S)s1	.	1.8
Cc1ccc(-n2nc(C)c(/C=N/NC(=O)Cc3csc(C)n3)c2Cl)cc1	.	-4.3
Cc1cc(N=CNOC(=O)c2nn(-c3ccccc3)nc2C)no1	0.406	0.9
Cc1cc(=O)oc2ccc(OC(=O)Cc3cccs3)cc12	0.307	-3.9
c1ccc2[nH]c(SCCSc3nc4ccccc4[nH]3)nc2c1	.	1.9
CCN1C(=O)/C(=C2\C=Cc3ccccc3N2CC)OC1=S	.	-1.4

Random excerpt: seven compounds from above.
SMILES	LANA-nucl inh	Ab BasE inh
CCCCn1c(=O)[nH][nH]c1=S	.	-0.5
CN=C1S/C(=C\c2cn(CC(=O)O)c3ccccc23)C(=O)N1C	.	4.1
C=CCn1c(Cc2ccc(OC)c(Cl)c2)n[nH]c1=S	-0.376	0.8
Clc1nnc(N/N=C/c2ccccc2)c2ccccc12	0.376	3.0
c1nc(N2CCN(Cc3ccc4c(c3)OCO4)CC2)c2ccsc2n1	.	-1.6
O=C(O)C1CCC(CNS(=O)(=O)c2ccc(Br)cc2)CC1 (configuration not stated)	-0.145	0.6
O=C(NC(=O)C1CCCCC1)Nc1ccc(Cl)cc1	.	2.3

(listing goes on)
SMILES	LANA-nucl inh	Ab BasE inh
O=C(CCCSc1nc(-c2ccco2)cc(C(F)(F)F)n1)NCC1CCCO1 (configuration not stated)	0.342	1.0
O=c1[nH]c2ccsc2c(=O)n1CCO	.	2.0
COc1ccc(C2=NN(C(=O)CSCc3ccco3)C(c3cccc(OC)c3OC)C2)cc1 (configuration not stated)	.	2.5
Cc1ccc(C(O)(C(F)(F)F)C(F)(F)F)o1	-0.294	-7.4
CC1C/C(=C\C=C\N(C)C)C(=O)/C(=C/C=C/N(C)C)C1 (configuration not stated)	5.54	-8.9
c1ccc(-c2nnc(CN3CCCCC3)o2)cc1	-0.596	-2.2
C#CC(CC)(CC)NC(=O)Cc1n[nH]c(=O)c2ccccc12	.	-5.3
CCC(C)C1NC(=O)C(CCNCS(=O)(=O)O)NC(=O)C(NC(=O)C(CCNCS(=O)(=O)O)NC(=O)C(NC(=O)C(CCNCS(=O)(=O)O)NC(=O)CCCCC(C)C)C(C)O)CCNC(=O)C(C(C)O)NC(=O)C(CCNCS(=O)(=O)O)NC(=O)C(CCNCS(=O)(=O)O)NC(=O)C(C(C)CC)NC1=O (configuration not stated)	0.111&1.06	-0.5
Nc1ncnc2c1c(I)cn2C1OC(CO)C(O)C1O (configuration not stated)	-0.072	-0.6
N#Cc1ccc(NC(=O)CCC2CCCC2)cc1	-0.915	-2.6
Cc1ccc(-c2nc(CS(=O)(=O)CC(=O)N3CCc4ccccc43)c(C)o2)cc1	0.217	-1.2
C#CCOc1cccc(CN(C)C(C)c2ccco2)c1 (configuration not stated)	0.135	2.0
O=S(=O)(Nn1cnnc1)c1ccccc1Cl	-1.37	1.4
O=C(COC(=O)C1CC(=O)N(Cc2ccco2)C1)c1ccc2ccccc2c1 (configuration not stated)	.	-2.4
Cc1ccc(NC(=O)c2ccc(CN3CCN(C)CC3)cc2)cc1Nc1nccc(-c2cccnc2)n1	-0.0945&1	.
Cc1ccc(-c2cccc(-n3c(C)ccc3-c3cccc(N)c3)c2)o1	.	1.9
COc1ccc2c(COC(=O)c3ccc(C)c(S(=O)(=O)N4CCOCC4)c3)cc(=O)oc2c1	.	1.9
O=c1[nH]cnc2c1cnn2-c1ccccc1	0.009	-0.1&0.6
C[N+]1(C)CCC(OC(=O)C(O)(c2ccccc2)C2CCCC2)C1 (configuration not stated)	-0.0155&1.4&-0.121	0.3
Oc1ccccc1CNC1CCN(Cc2ccccc2)CC1	.	-2.3
CCNc1c(NC(=O)Nc2ccc(CC)cc2)c(=O)oc2ccccc12	1.79	0.7
NNC(=O)c1nc(-c2ccccc2)n2c1CCCCC2	.	15.2
CC1CCN(c2ncnc3c2cnn3C)CC1	-0.998	-0.1
COc1ccc(OCC(=O)N2CCN(c3cccc(C(F)(F)F)c3)CC2)cc1	.	3.6
Cc1cc(NC(=O)c2ccc(=O)[nH]c2)ccc1Br	.	-3.9

(further entries)
SMILES	LANA-nucl inh	Ab BasE inh
Cc1cc2oc(=O)cc(C)c2cc1N	0.689	1.6
Cc1cccc(NS(=O)(=O)c2ccc(C(=O)NC3=NCCS3)cc2)c1C	.	1.0
CCN=C1NC(=NCC)c2ccccc21	.	0.0
CCc1nc(SC)ncc1C(=O)NCc1ccc(OC)cc1	0.071	-5.7
C[C@H](NC(N)=O)C(=O)N1CCc2ccccc21	.	4.6
CCC(C)(C)C1CCc2oc3ccc(NS(=O)(=O)c4cccs4)cc3c2C1 (configuration not stated)	.	2.8
N#Cc1ccccc1COC(=O)CCC(=O)c1cccs1	.	0.2
Cc1ccc2[nH]c(=S)oc2c1	0.133	6.4
CCc1nnc(NC(=O)COc2cc(C)c(Cl)c(C)c2)s1	.	2.7
CC(C)N(Cc1ccc(N(C)C)cc1)C(=O)c1sc2ccccc2c1Cl	.	-0.1
Nn1c(Cc2ccccc2)nc2sc3c(c2c1=O)CCCC3	.	2.3
COC(=O)c1ccc(N2CCN(C)CC2)c(NC(=O)c2ccc(C#N)cc2F)c1	-0.092	0.2
CN(C)C(=O)Cn1nc(C(=O)O)c2ccccc2c1=O	.	0.8
Cc1cccc(C)c1NC(=O)CN(C)c1ccc(S(=O)(=O)N(C(C)C)C(C)C)cn1	.	0.6
O=C(CSC1=NC(=O)C(c2ccccc2)C(=O)N1)Nc1nc2ccccc2s1 (configuration not stated)	0.027	0.7
CCOC(=O)c1cc(-c2csc(CS(=O)(=O)c3ccccn3)n2)on1	-0.345	-0.5
CCOC(=O)c1c(C)n(C)c2ccc(OCC(O)CN3C(=O)c4ccccc4S3(=O)=O)cc12 (configuration not stated)	-0.278	1.7
CCOc1ccc(-c2ncccc2O)cc1	-0.166	4.4
CCN=C1NC(=O)C(CC(=O)NCCc2ccccc2)S1 (configuration not stated)	.	1.4
O=C(NCc1ccc(Cl)cc1)c1ccc(-n2cnnn2)cc1	.	-0.4
Cc1ccccc1NC(=O)/C=C\C(N)=O	0.381	0.2
CC(=O)Nc1ccc(/C=N/OCC(=O)Nc2ccc(C)cc2)cc1	.	0.5
NCC(O)CC(=O)O (configuration not stated)	1.21	-2.9
COc1ccnc(C(=O)O)c1	-0.663	1.6
COc1ccc(N2CC(NC(=O)Nc3ccc(S(=O)(=O)NC(C)=O)cc3)CC2=O)cc1 (configuration not stated)	-0.251	-0.5

(further entries)
SMILES	LANA-nucl inh	Ab BasE inh
Cc1cc(C(=O)CSc2nc3ccc(Cl)cc3[nH]2)c(C)n1Cc1ccco1	.	-2.6
O=C(CN1C(=O)NC(Cc2c[nH]c3ccccc23)C1=O)c1ccc(F)cc1 (configuration not stated)	.	2.3
CCCn1c(SCCCC(=O)c2cccs2)n[nH]c1=O	.	0.9
C/C(N)=C(/C#N)C(=O)Cn1nc(C(=O)O)c2ccccc2c1=O	.	-2.1
Cn1/c(=N/N=c2\oc3ccccc3n2C)oc2ccccc21	-0.212	1.0
CCOC(=O)N1CCC(n2c(SCC(=O)Nc3nccs3)nc3ccsc3c2=O)CC1	0.381	1.1
COC(=O)c1ccccc1NC(=O)N1CCCc2cc(C)ccc21	0.333	1.3
O=C1OC(c2ccccc2)OC(=O)C1=C/C=C/c1ccccc1 (configuration not stated)	.	3.5
CC(C)(C)OC(=O)N1CCC[C@H]1C(=O)OCc1ccc(Cl)cc1Cl	.	-1.0
CN(C)Cc1ccc(C(=O)NN)o1	.	1.9
Cc1ccc(N2CC(NC(=O)N3CCN(c4ccc(F)cc4)CC3)CC2=O)cc1C (configuration not stated)	-1.35	0.3
NC1=NC(=O)/C(=C/c2cccs2)S1	2.47	1.1
O=C(CSc1nccn1-c1cccc(F)c1)N1CCN(c2ccc(O)cc2)CC1	.	-1.3
CCOC(=O)CSc1nnc2ccccn12	.	-0.7
O=C(CN1CCCCC1)N1N=C(c2cccs2)CC1c1ccc(O)cc1 (configuration not stated)	-0.067	-7.8
O=C1S/C(=C/c2ccccc2)C(=O)N1CO	-0.347	-0.5
COc1ccc(Cl)cc1NC(=O)Cn1c(NCC(C)O)nc2ccccc21 (configuration not stated)	.	0.1
CC(=O)Nc1ccc(C(=O)CSc2nnc(-c3ccoc3)c(-c3ccoc3)n2)cc1	0.951	-0.5
CC(C)NC(=S)N=Nc1c(O)[nH]c2ccc(C(C)C)cc12	.	0.3
O=c1[nH]ncc(NCCCc2ccccc2)c1Cl	.	0.1
O=C(Nc1cccnc1N1CCOCC1)c1cc2ccccc2oc1=O	-1.43	0.5
CN1C(=O)N(C)C2C1N(C)S(=O)(=O)N2C (configuration not stated)	-0.916	-0.8
O=C(O)CSc1nc2cc(N3CCOCC3)c(F)cc2[nH]1	-0.514	-1.3
CC1C(O)=C(c2nc3ccccc3[nH]2)c2nc(=O)c3ccccc3n21 (configuration not stated)	.	2.4
Cc1nn(-c2ccccc2)c2c1C(c1ccc3c(c1)OCO3)C(C#N)C(=O)N2 (configuration not stated)	.	2.8
O=C(/C=N/O)c1ccc(Cl)cc1Cl	2.71	1.6
Cc1c(NC(=O)c2ccc(S(=O)(=O)N3CCCC3)cc2)c(=O)n(-c2ccccc2)n1C	0.158	0.5
